# CSC inhib – cancer stem cell viability inhibitors, primary screen, luminescence. cancer stem cell-like cells viability. inhibition, % at 7.5 µM. 1.1% of 300,000 active. AID 2717, 2010;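 active means mean at 75% or more and at least half the replicates too; inconclusive means mean and replicates disagree; tested in HMLE shEcad cells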;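 further: 0% = median of negative and 100% = median of positive control wells; the first replicate is given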
# PABP polyA inh – PABP poly(A) RNA binding inhibitors, primary screen, biochemical, fluorescence polarization, uHTS. AID 2014, 2009. 1% of 290,000 active. Polyadenylate-binding protein 1 (Homo sapiens), P11940. inhibition, % at 35 µM;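 active means 50% or more with normal probe brightness, or confirmed in later tests; inconclusive means above 50% with abnormal brightness, or retests that disagree; inactive means below 50% or failed in later tests; about a fifth of its hits are not listed in these tables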;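 further: calls also rest on retests at 20 µM and on dose response follow-up; controls were probe without protein and protein plus probe with vehicle; some compounds called inactive have numbers as strong as hits; many hits fall short of the cut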
# Target sequence (P11940 whole entry, looked up): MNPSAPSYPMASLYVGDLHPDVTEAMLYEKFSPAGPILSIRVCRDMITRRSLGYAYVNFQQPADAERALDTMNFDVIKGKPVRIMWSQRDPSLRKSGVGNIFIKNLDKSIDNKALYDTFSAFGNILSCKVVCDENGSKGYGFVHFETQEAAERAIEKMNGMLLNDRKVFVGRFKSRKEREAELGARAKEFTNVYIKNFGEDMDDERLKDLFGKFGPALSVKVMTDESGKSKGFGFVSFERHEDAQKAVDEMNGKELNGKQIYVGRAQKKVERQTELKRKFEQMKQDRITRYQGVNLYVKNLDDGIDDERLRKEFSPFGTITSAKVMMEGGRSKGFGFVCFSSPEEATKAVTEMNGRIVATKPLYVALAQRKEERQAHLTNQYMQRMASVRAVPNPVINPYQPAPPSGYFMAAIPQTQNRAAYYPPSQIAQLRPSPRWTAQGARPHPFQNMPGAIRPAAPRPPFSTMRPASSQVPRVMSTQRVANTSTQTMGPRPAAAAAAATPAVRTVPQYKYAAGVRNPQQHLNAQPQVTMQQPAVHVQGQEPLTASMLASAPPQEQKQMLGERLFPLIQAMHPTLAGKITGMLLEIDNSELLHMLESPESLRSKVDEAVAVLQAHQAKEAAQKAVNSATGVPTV
# Rce1 inh – yeast Rce1p protease inhibitors, primary screen, biochemical, fluorescence, cell-free homogeneous; 0.27% of 290,000 active; CAAX prenyl protease 2 (Saccharomyces cerevisiae (strain ATCC 204508 / S288c)), Q03530; AID 2563, 2010; yeast membranes, quenched prenylated peptide cleavage fluorescence; calls only;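 active means fall in fluorescence gain of 50% or more versus controls, with final raw signal at or below 3038400; inconclusive means same 50% fall but final raw signal above 3038400; inactive means fall in fluorescence gain under 50%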;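 further: plate controls were neutral control wells for no effect and wells lacking membranes for full effect; tested at 10 µM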
# HIV Env fusion – inhibitors of HIV-1 Env-driven cell-cell fusion, primary screen, HeLa-JRFL effector, CEM21 target cells, luciferase | 1.1% of 360,000 active | inhibition, % at 12.3 µM;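 active means mean replicate inhibition score of at least 50 and every replicate individually at or above 50; inconclusive means only one of the two criteria met; inactive means mean below 50 and not all replicates reaching 50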;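 further: 0% = plate neutral controls and 100% = maraviroc near 300 nM; one replicate is shown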
# MT1-MMP act inh – blockers of MT1-MMP proenzyme processing, primary screen, HT1080 RFP-PRO-GFP cells, GFP/RFP fluorescence | GFP/RFP ratio change, % at 20 µM | Matrix metalloproteinase-14 (Homo sapiens), P50281 | GFP/RFP ratio fluorescence, overnight; percent of plate control window, DMSO zero | 0.061% of 360,000 active;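 active means GFP/RFP ratio change of at least 30% with cell ATP level not reduced by more than half and red fluorescence within 50% of control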; further: strong numbers were not always called active
#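 Compound: 20 µM single dose, 1% DMSO / System: HT1080 RFP-PRO-GFP cells / Controls: DMSO and RFP-L50D-GFP cell wells / Read-out basis: GFP/RFP fluorescence ratio / Schedule: overnight compound exposure at 37 °C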
# Yeast UUG start – modulators of yeast start codon fidelity, primary screen, whole organism, S. cerevisiae, single point, plate reader. S. cerevisiae UUG-firefly luciferase reporter, luminescence/redox ratio. activity score, % at 18.7 µM. 0.13% of 350,000 active. AID 602363, 2012;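 active means replicate mean at a twofold rise or more, about +100% in these data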;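 further: firefly luciferase made from a UUG start codon reports start codon fidelity; reporter light over untreated wells divided by growth signal over untreated wells; some hits fall short of that in this replicate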
# eIF4H FP inh – human eIF4H binding inhibitors, primary screen, translation initiation inhibitor project, biochemical, uHTS, fluorescence polarization. Eukaryotic translation initiation factor 4H (Homo sapiens), Q15056. eIF4H fluorescence polarization binding assay. inhibition, % at 35 µM. 0.94% of 290,000 active;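 active means 50% or more with normal probe brightness, or confirmed in later tests; inconclusive means above 50% with abnormal brightness, or retests that disagree; inactive means below 50% or failed in later tests; about a fifth of its hits are not listed in these tables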;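 further: calls also rest on retests at 20 µM and on dose response follow-up; 0% = protein and probe with vehicle and 100% = probe without protein; strong numbers were not always called active; many hits fall short of the cut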
# MT1-MMP act inh RFP – also measured in MT1-MMP act inh; calls as there; RFP signal change, %; measured here: RFP expression control read;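 0 = vehicle wells; hits needed this value within 50% of zero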
# * = called active by the depositor; i = inactive; ? = inconclusive; · = not tested or not shown; + = active, no number. This is a subset (hit frequency here may not be typical).
SMILES,CSC inhib,PABP polyA inh,Rce1 inh,HIV Env fusion,MT1-MMP act inh,MT1-MMP act inh RFP,Yeast UUG start,eIF4H FP inh
COc1ccccc1CNS(=O)(=O)CCNCCc1ccccc1,·,·,·,2,3,5,-14,·
Cc1c(Cl)c([N+](=O)[O-])nn1CCCC(=O)Nc1cc(Oc2ccccc2)cc([N+](=O)[O-])c1,-2,-3,i,7,2,-11,-5,-2
COC(=O)N/N=C/c1cc(C)n(-c2ccccc2)c1C,-6,-5,i,6,0,3,·,-2
Nc1cc(N2CCCCC2)c(Cl)cc1[N+](=O)[O-],5,1,i,-436,3,-4,15,-12
COc1ccccc1NC(=O)CCC(=O)N/N=C(/C)c1ccc(C)cc1,-4,-2,i,7,4,2,·,2
COc1ccc(C(=O)c2oc3ccccc3c2N)cc1,8,2,i,-137,0,-5,7,7
O=C(Nc1ccc(C(=O)NCCCN2CCCCC2)cc1)C1=CSCCO1,-3,0,i,-8,-2,1,-5,0
Cn1c(=O)c(C(=O)NCc2ccc(F)cc2)c(O)c2ccccc21,17,6,i,-6,3,5,-11,-10
CCCC(c1nnnn1Cc1ccc(OC)cc1)N1CCN(C(=O)c2ccco2)CC1 (stereo not drawn),-2,7,i,7,-4,-1,-16,-11
CCOC(=O)C1=CC[C@@H](c2ccccc2)N(S(=O)(=O)c2ccc(C)cc2)[C@H]1c1cccc(OC)c1,·,·,·,8,-7,-14,-17,·
S=C1NC2=C(CCCC2=C2SCCCS2)C(c2ccccc2)N1 (stereo not drawn),-11,-5,i,-3,1,-1,·,0
Nc1nnc(CCN2C(=O)CSC2=O)s1,-4,10,i,-10,0,1,-4,-2

# Record cards, from the list above.
# Results for Cc1c(Cl)c([N+](=O)[O-])nn1CCCC(=O)Nc1cc(Oc2ccccc2)cc([N+](=O)[O-])c1 → CSC inhib: -2; PABP polyA inh: -3; Rce1 inh: i; HIV Env fusion: 7; MT1-MMP act inh: 2; MT1-MMP act inh RFP: -11; Yeast UUG start: -5; eIF4H FP inh: -2
# Results for COc1ccc(C(=O)c2oc3ccccc3c2N)cc1 → CSC inhib: 8; PABP polyA inh: 2; Rce1 inh: i; HIV Env fusion: -137; MT1-MMP act inh: 0; MT1-MMP act inh RFP: -5; Yeast UUG start: 7; eIF4H FP inh: 7

# (list continues)
SMILES,CSC inhib,PABP polyA inh,Rce1 inh,HIV Env fusion,MT1-MMP act inh,MT1-MMP act inh RFP,Yeast UUG start,eIF4H FP inh
N#C/C(=C\c1ccccc1)c1ccccn1,-2,-2,i,-10,-1,1,·,2
CC1CCCCN1c1ncnc2ccccc12 (stereo not drawn),8,4,i,·,1,-16,-9,0
NC(=O)CC(NC(=O)Cc1ccc(Br)cc1)c1ccc(N2CCC(N3CCCC3)CC2)c([N+](=O)[O-])c1 (stereo not drawn),-9,-2,i,18,-1,7,-23,-5
O=C(NCc1nc2ccccc2[nH]1)C1=C[C@@H](C2CCCCC2)C[C@@H](OCCCCO)O1,-3,-3,i,-8,9,-1,2,-19
COc1ccc(/C=N/N2CCN(c3ccncc3S(=O)(=O)N3CCCCC3)CC2)cc1,-8,-5,i,·,4,0,-20,-4
N#Cc1c(-c2cccs2)cc(C2CC2)nc1SCC(N)=O,-1,18,i,·,-2,6,-24,-8
O=C(c1ccc(S(=O)(=O)N2CCOCC2)cc1)N(c1ccccn1)C1CCCCC1,-19,3,i,0,-4,3,7,-6
COc1ccccc1CCn1cc(C#N)c(=O)[nH]c1=O,-17,-4,i,-11,8,1,-23,6
Cc1nc(Nc2ccncc2)c2oc3ccccc3c2n1,-2,-1,i,·,-11,-8,·,4
Cc1[nH]c(=O)[nH]c(=O)c1S(=O)(=O)Nc1cccc(C(F)(F)F)c1,-3,-6,i,-6,0,3,-4,3
Cc1cc(OCC(=O)NCCN2CCOCC2)cc(C)c1Cl,-18,24,i,9,1,0,-13,-1
COCc1cc(=O)[nH]c(SCC(=O)Nc2ccccc2)n1,1,-2,i,-49,2,1,-13,-3

# Reprinted at random: 7 compounds from above, in no set order.
SMILES,CSC inhib,PABP polyA inh,Rce1 inh,HIV Env fusion,MT1-MMP act inh,MT1-MMP act inh RFP,Yeast UUG start,eIF4H FP inh
O=C(NCc1nc2ccccc2[nH]1)C1=C[C@@H](C2CCCCC2)C[C@@H](OCCCCO)O1,-3,-3,i,-8,9,-1,2,-19
Nc1cc(N2CCCCC2)c(Cl)cc1[N+](=O)[O-],5,1,i,-436,3,-4,15,-12
Cn1c(=O)c(C(=O)NCc2ccc(F)cc2)c(O)c2ccccc21,17,6,i,-6,3,5,-11,-10
COc1ccccc1CNS(=O)(=O)CCNCCc1ccccc1,·,·,·,2,3,5,-14,·
Cc1c(Cl)c([N+](=O)[O-])nn1CCCC(=O)Nc1cc(Oc2ccccc2)cc([N+](=O)[O-])c1,-2,-3,i,7,2,-11,-5,-2
S=C1NC2=C(CCCC2=C2SCCCS2)C(c2ccccc2)N1 (stereo not drawn),-11,-5,i,-3,1,-1,·,0
COc1ccc(/C=N/N2CCN(c3ccncc3S(=O)(=O)N3CCCCC3)CC2)cc1,-8,-5,i,·,4,0,-20,-4

# (cont.)
SMILES,CSC inhib,PABP polyA inh,Rce1 inh,HIV Env fusion,MT1-MMP act inh,MT1-MMP act inh RFP,Yeast UUG start,eIF4H FP inh
Cc1ccc(OCC(=O)c2cc(C)n(C3CC3)c2C)c([N+](=O)[O-])n1,8,-1,i,·,13,7,-15,?
COc1ccc(CC(=O)c2ccc(OC)c(OC)c2)cc1,13,-6,i,6,2,4,·,-8
COc1ccc(C)cc1NC(=O)CSc1nc(SC)ns1,-17,-1,i,·,2,3,-19,-3
CCOc1ccccc1NC(=O)c1ccccc1NC(=O)c1ccco1,5,-3,i,3,1,4,-7,-2
COC(C[C@H]1O[C@H]1C(=O)COCc1ccccc1)OC,·,-6,i,-12,-2,3,-12,-3
CC(C)c1ccc(NC(=O)CSc2nc3ncccc3[nH]2)cc1,-9,-3,i,-1,-5,-10,3,-6
COc1ccc(/C=C/C(=O)OCc2cc(=O)n3c(n2)sc2ccccc23)cc1,0,-2,i,-179,-2,3,-8,-7
Cc1cc(C)cc(N=c2c([N+](=O)[O-])nn(-c3ccc4c(c3)OCCO4)n2O)c1,31,-6,i,65*,-12,-13,2,12
O=C(COC(=O)c1ccccc1Cl)NCc1ccco1,7,·,·,-2,1,-2,-33,·
CCOc1cccc(OCCOc2ccccc2[N+](=O)[O-])c1,14,-7,i,·,-1,-5,0,11
Cn1c(Cc2ccccc2)nnc1SCc1ccc(C(=O)O)cc1,·,5,i,·,-3,4,0,10
O=C(c1cc(=O)[nH]c2ccccc12)N1CCN(S(=O)(=O)c2ccc3ccccc3c2)CC1,-17,9,i,·,2,-3,-1,-5
CC(=O)Nc1ccc(NC(=O)[C@@H]2CCCC[C@@H]2C(=O)O)cc1,-1,16,i,25,2,-4,-10,9
Cc1ccc(NC(=O)c2cc(NC(=O)C3CC=CCC3C(=O)O)ccc2N2CCOCC2)cc1Cl (stereo not drawn),-13,15,i,-82,1,3,-7,-4
COc1ccc(C(C#N)(CCC#N)CCC#N)cc1OC,-12,5,i,·,-2,-1,-7,-10
Cc1ccc(S(=O)(=O)NCC(=O)N2CCN(S(=O)(=O)c3ccc(Cl)cc3)CC2)cc1C,-3,·,i,-17,-4,-9,-7,·
c1ccc2c(-c3cn4ccccc4n3)c[nH]c2c1,-11,1,+,·,·,·,·,15
Cc1cc(Br)c(NC(=O)COC(=O)CSc2nnc(-c3ccc(Cl)cc3)o2)c(Br)c1,6,-13,i,-12,1,3,·,6
CNc1ccc(OC(F)F)cc1C(=O)c1ccccc1,3,-5,i,-19,0,-1,-15,1
COc1ccc2cc(C(=O)Nc3ccccc3)sc(=O)c2c1OC,-10,-8,i,-17,5,6,0,-5
COC(=O)c1cccc(-n2sc3ccccc3c2=O)c1,25,·,·,16,-4,0,-6,·
O=C1Cc2cc(S(=O)(=O)Nc3cccc([N+](=O)[O-])c3)cc3c2N1CCC3,-2,3,i,-3,4,-3,-6,-6
O=C(NCC1CCCO1)c1csc2c1CCCC2 (stereo not drawn),-18,-4,i,·,1,1,-11,-8
O=C(CCc1nc2ccccc2c(=O)[nH]1)N1CCN(C/C=C/c2ccccc2)CC1,4,0,i,-23,-4,-6,·,-6
O=C(CN(CC1CCCO1)C(=O)CNS(=O)(=O)c1ccc(F)cc1)NCc1ccccc1 (stereo not drawn),·,-4,i,-2,2,4,-10,4
COc1ccc([N+](=O)[O-])cc1NC(=O)CCCOc1ccccc1,-4,-4,i,9,2,-3,-9,-3
CC(C)c1ccccc1OCC(=O)Nc1ccccc1C(=O)N1CCOCC1,-7,-9,i,22,-1,-5,-3,1
CC(OC(=O)CSc1ccc([N+](=O)[O-])cc1)C(=O)NCc1ccccc1 (stereo not drawn),11,·,i,·,-8,-1,-20,·
COC(=O)c1ccccc1C(=O)N1CCOCCN(C(=O)c2ccccc2C(=O)OC)CCOCC1,-9,-2,i,-87,2,-2,·,3
CC(=O)Nc1ccc(NC(=O)/C(=C/c2ccco2)NC(=O)c2ccccc2)cc1,6,-6,i,16,0,1,·,7
Cc1ccc(NC(=O)c2ccc3ccccc3n2)nc1,-5,-13,i,-349,3,4,-16,-14
CC1(C)CC(=O)C=C(c2ccc3[nH]ccc3c2)C1,-14,·,i,-46,0,-5,16,·
CCc1nnc(NC(=O)c2cc3c(s2)CCCCC3)s1,-1,·,i,-230,7,6,-19,·
CSc1ccc(S(=O)(=O)NCc2ccccc2Cl)cc1,6,2,i,13,-1,-3,-12,2
CCOC(=O)C(=Cc1ccc(-c2ccsc2C(=O)OC)o1)C(=O)OCC,-8,-4,i,-177,-12,-13,-12,-9

# High-throughput results as filed in PubChem.
